Source: PubChem BioAssay
Cruzain noTriton – cruzain (T. cruzi) inhibition without detergent | P25779 | purified cruzain, Z-FR-AMC fluorescence, no detergent | Potency, µM, for inactives: max response, negative = inhibition, actives largely listed as inhibitors | actives 2.3% (n = 200,000);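 further: plate controls were enzyme without inhibitor for no effect and buffer without enzyme for full effect; nearly all actives have a fitted effect of over 40% in size; top concentration of the series not given in the record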
Target sequence (P25779 123-467 limits assumed): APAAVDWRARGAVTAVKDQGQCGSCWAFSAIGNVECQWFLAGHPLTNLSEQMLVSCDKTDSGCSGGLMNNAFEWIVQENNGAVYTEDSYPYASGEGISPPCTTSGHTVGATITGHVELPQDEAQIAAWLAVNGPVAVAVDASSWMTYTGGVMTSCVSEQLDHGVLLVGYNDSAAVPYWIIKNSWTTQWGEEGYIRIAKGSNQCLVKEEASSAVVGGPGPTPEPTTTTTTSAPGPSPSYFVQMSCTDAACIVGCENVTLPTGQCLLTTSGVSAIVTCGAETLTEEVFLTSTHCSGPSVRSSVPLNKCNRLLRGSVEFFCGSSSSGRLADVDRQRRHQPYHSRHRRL
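Detergent-free condition (0.00005% Triton X-100) in acetate buffer pH 5.5 with DTT. 1.5 nM enzyme and compound were pre-mixed 15 min, then 2 uM Z-FR-AMC substrate added; reaction progress from fluorescence change between first and third reads (60 s).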
Marburg entry inh – blocks Marburg virus binding to or entry into cells | Marburg virus pseudotyped entry inhibition, cell reporter; control for the full effect not named in the record; about a third of the inactives were read at about 46 µM | Potency, µM (series often up to 37.8 µM), without a hit: at the top dose activity change, negative = inhibition, usual class: inhibitors | actives 1.8% (n = 300,000) | AID 540276; active = well fitted inhibition curve with a large enough effect; inconclusive = small, poorly fitted or top-dose-only effect, or effect the other way; inactive = flat fitted curve, though single readings scatter; tested in HEK293 cells; about a fifth of its hits are not listed in these tables; further: on the % scale 0 is the no-effect control and ±100 the full control effect; luciferase read-out
RE007 growth inh – less growth of the S. pombe RE007 Vpr strain; S. pombe RE007 Vpr strain, BacTiter-Glo ATP luminescence, 24 h; control for the full effect not named in the record; Potency, µM (highest dose often 92.2 µM), for inactives: at the highest dose activity change, negative = less growth; actives 0.21% (n = 360,000); AID 651644; active = well fitted falling curve with a large enough effect; inconclusive = small, poorly fitted or top-dose-only effect; inactive = no such curve, though single readings can be large or run the other way;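 further: on the % scale 0 is the no-effect control and ±100 the full control effect; nearly all actives have a fitted effect of over 50% in size; the assay follows cell death caused by Vpr and the record does not say whether a fall means rescue or toxicity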
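Fission yeast RE007 carrying one integrated HIV-1 vpr copy, seeded at OD 0.01 in PMG+AL medium with 23 nL pinned compound. Grown 24 h at 30 degrees; viability read by BacTiter-Glo luminescence after 5 min.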
StopGo reporter – FMDV 2A StopGo reporter, luciferase signal; human cells with a luciferase reporter of 2A StopGo recoding; control for the full effect not named in the record; Potency, µM (titrated, usually from 57.9 µM), for the others: at the top dose signal change, negative = less light; actives 1.2% (n = 410,000); AID 1159524; active = well fitted falling curve with a large enough effect; inconclusive = small, poorly fitted or top-dose-only effect; inactive = no such curve, though single readings can be large or run the other way; tested in HEK293T cells; further: on the % scale 0 is the no-effect control and ±100 the full control effect; nearly all actives have a fitted effect of over 45% in size; luciferase light after 4 h
Cruzain Triton – cruzain (T. cruzi) inhibition with detergent; purified cruzain, Z-FR-AMC fluorescence, 0.01% Triton; Potency, µM, for the others: max response, negative = inhibition, hits mostly inhibitors; actives 0.43% (n = 200,000); P25779; AID 1478;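 further: plate controls were neutral wells for no effect and buffer without enzyme for full effect; nearly all actives have a fitted effect of over 40% in size; top concentration of the series not given in the record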
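Cysteine protease activity tested under reducing, mildly acidic conditions (100 mM sodium acetate pH 5.5, 5 mM DTT) plus 0.01% Triton X-100. Cruzain 1.5 nM; substrate Z-FR-AMC 2 uM; 15 min compound preincubation at room temperature.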
LASV entry inh – inhibitors of Lassa virus binding or cell entry; Lassa virus pseudotype entry inhibition, cell reporter; control for the full effect not named in the record; Potency, µM (top dose mostly 37.9 µM), for inactives: at the highest dose activity change, negative = inhibition, usual class: inhibitors; actives 1.2% (n = 300,000); AID 540256; active means well fitted inhibition curve with a large enough effect; inconclusive means small, poorly fitted or top-dose-only effect, or effect the other way; inactive means flat fitted curve, though single readings scatter; tested in HEK293 cells; further: on the % scale 0 is the no-effect control and ±100 the full control effect; nearly all actives have a fitted effect of over 50% in size; luciferase read-out
SARS PLpro yeast – blocks SARS-CoV papain-like protease in a yeast assay | S. cerevisiae expressing SARS-CoV PLpro, growth rescue; control for the full effect not named in the record | Potency, µM (doses to about 32.9 µM), inactives show at the top dose activity, positive = growth rescue | actives 0.19% (n = 330,000); active means well fitted rising curve with a large enough effect; inconclusive means small, poorly fitted or top-dose-only effect; inactive means no such curve, though single readings can be large or run the other way; further: 0% is about no effect; nearly all actives have a fitted effect of over 55% in size; growth read by luminescence after 48 h
NS1 function inh – inhibitors of influenza NS1 protein function; S. cerevisiae slowed by influenza A NS1, growth recovery by OD600; Potency, µM (highest dose often 46.1 µM), for inactives: at the highest dose activity, positive = more growth; actives 0.4% (n = 270,000); active means well fitted rising curve with a large enough effect; inconclusive means small, poorly fitted or top-dose-only effect; inactive means no such curve, though single readings can be large or run the other way; further: nearly all actives have a fitted effect of over 50% in size
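S. cerevisiae expressing influenza A NS1, grown in glucose, washed, then diluted 1:100 into pH 6.0 -URA galactose medium with 23 nl compound. Growth recovery read as OD600; NS1-free strain serves as control.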
Starred values were filed as active, the others as inactive; ? = inconclusive; / = no result given; & = joins results of further samples; [ ] = dose if it differs, or a comment. Unless noted, the call rests on the fitted dose curve; in most records, active means well fitted curve in the direction sought with a large enough effect; inconclusive means small, poorly fitted or top-dose-only effect, or another doubt; inactive means no such curve, though single readings can be large; an effect the other way counts as inactive or inconclusive. Potency means the concentration at half of the fitted maximal effect.

Structure | Cruzain noTriton | Marburg entry inh | RE007 growth inh | StopGo reporter | Cruzain Triton | LASV entry inh | SARS PLpro yeast | NS1 function inh
O=S(=O)(NCCc1csc2nc(-c3ccc(Cl)cc3)nn12)c1ccc2c(c1)OCCO2 | -7% | / | / | -21% | -6.2% | -1%[46.1 µM] | / | /
CCC(C)n1c(C)nc2c(c1=O)c1nc3ccccc3nc1n2CCC1=CCCCC1 (stereo not given) | -10% | -2% | 12%[3.69 µM] | 7% | -6.3% | 7% | -2% | 8%
CSc1nnc(C)c(=O)n1COC(=O)c1ccc([N+](=O)[O-])cc1 | / | 15%[46.1 µM] | 0% | -10% | / | -12%[46.1 µM] | 0% | /
CCOc1ccccc1CN1CCN(Cc2c[nH]c3ccccc23)CC1CCO (stereo not given) | / | / | -10% | -1% | / | / | -8% | 18%
COc1cc(C(=O)Nc2ccc(NC(C)=O)cc2)ccc1OCc1ccccc1 | / | -15%[46.1 µM] | -2% | 5% | / | -7%[46.1 µM] | 3% | /
COc1ccc(OC)c(S(=O)(=O)N/N=C(/C)c2ccc3c(c2)OCO3)c1 | / | 3%[46.1 µM] | 18% | 0% | / | 2%[46.1 µM] | 3% | -5%
C=CCOC(=O)C(C#N)c1nc2ccccc2nc1N1CCN(c2ccccc2OC)CC1 (stereo not given) | ? | -22% | -1% | -19% | -6.2% | -3% | 2% | ?
COc1ccc(C)cc1S(=O)(=O)N(CC(=O)NC1CCCC1)c1ccc(F)cc1 | / | -26% | 30% | 2% | / | -21% | ? | -1%
Cc1nc(CCNC(=O)c2cccs2)cs1 | -4% | 5% | 1% | / | 2.5% | 3% | -18% | 6%
COC(CNC(=O)Cn1nc(Cc2ccncc2)c2ccccc2c1=O)OC | / | / | 27% | -16% | / | / | 0% | 0%
Cc1ccc(NC(=O)CN(C)C(=O)Cn2nnc(-c3ccccc3C)n2)cc1 | / | 2% | 2% | -15% | / | -17% | -1% | /
Cc1ncc(CN2CCC(N3CCC(C(=O)N4CCCC4)CC3)CC2)s1 | / | 4% | 0% | -15% | / | -4% | -10% | 3%
Cn1c(=O)cc(SCC(=O)N2CCN(c3ccccc3F)CC2)c2ccccc21 | ? | 3%[46.1 µM] | / | 6% | -6.1% | 7%[46.1 µM] | / | /
CC(=O)c1c(C)[nH]c(C(=O)CN2C(=O)NC3(CCCCC3C)C2=O)c1C (stereo not given) | / | -13%[46.1 µM] | -7% | -10% | / | -8% | 2% | /
CCOc1cccc(C(c2c(C)n(C)n(-c3ccccc3)c2=O)c2c(C)n(C)n(-c3ccccc3)c2=O)c1OC | -10% | 7%&7%[46.1 µM] | 5% | 3%&21% | -3.0% | 3%[46.1 µM] | -1% | -3%
O=C(Nc1ccc(N2CCOCC2)c(Cl)c1)c1ncn[nH]1 | 4% | 3% | 4% | 33%[activator] | 0.4% | 0% | -3% | -10%
O=C(OC1CCOC1=O)c1ccc(CO)cc1 (stereo not given) | / | 0%[46.1 µM] | 3% | 22% | / | -8%[46.1 µM] | 11% | 19%
O=C(Nc1cccc2ccccc12)c1ccc(OC(=S)N2CCOCC2)cc1 | -6% | 2.6µM* | -9% | / | -8.9% | 1.5µM* | 4% | -5%
COc1ccccc1N1CC(C(=O)OCC(=O)Nc2c(C)cccc2C)CC1=O (stereo not given) | / | 11%[46.1 µM] | 8% | 4% | / | 10% | 10% | -12%
O=C(O)c1cc(O)c2c(c1)[C@H]([C@H]1c3cc(C(=O)O)cc(O)c3C(=O)c3c(O[C@@H]4OC(CO)C(O)C(O)C4O)cccc31)c1cccc(O[C@@H]3OC(CO)C(O)C(O)C3O)c1C2=O (stereo not given in full) | ? | ? | / | / | 16µM* | 15% | / | /
O=C(NC1CC1)c1nc2c(nnn2Cc2ccccc2Cl)c(=O)[nH]1 | 5% | 8% | 8% | / | -4.6% | 5% | -5% | -4%
Cc1oc(-c2ccccc2Cl)nc1CN1CCCC1c1ccc(F)cc1 (stereo not given) | / | / | 8% | 0% | / | / | 0% | -2%
C=CCN1C(=O)c2ccc(C(=O)N(CCC)CC(=O)Nc3ccccc3C)cc2C1=O | / | 5% | 13% | -14% | / | -2%[46.1 µM] | 2% | /
Cc1nn(-c2ccccc2)c(C)c1C(=O)OCC(=O)NC12CC3CC(CC(C3)C1)C2 | -7% | -17% | 20% | -23% | -2.7% | ? | -10% | 4%
NS(=O)(=O)c1ccc(N2CCCC2=O)c([N+](=O)[O-])c1 | / | 22%[46.1 µM] | -4% | -1% | / | -7% | 0% | 5%
COC(=O)CN1C(=O)N(c2ccccc2)C(N(O)C(=O)Nc2ccccc2)C1(C)C (stereo not given) | 8% | 23% | 4% | 22% | -7.2% | -8% | -6% | -6%
COCCN(CCOC)S(=O)(=O)c1ccc(NC(=O)c2cnccn2)cc1 | / | / | -15% | 5% | / | / | 11% | 26%
CC(=O)Nc1cccc(NC(=O)C(=O)NCCc2sc(-c3ccccc3)nc2C)c1 | 26% | / | / | -11% | -2.2% | -17%[46.1 µM] | / | /
Cc1nc(N)sc1C(=O)N/N=C/c1ccco1 | -10% | -8% | 1% | 22% | -8.7% | -4% | 12% | 14%
COc1ccc(C(=O)Nc2nc3c(s2)Cc2c(Br)ccc(OC)c2-3)cc1OC | 15% | -20%[46.1 µM] | / | -22% | -2.2% | 4%[46.1 µM] | / | /
CCOC(=O)c1c(C)[nH]c(C(=O)OCc2csc(CC(=O)Nc3ccccc3C)n2)c1C | / | ? | 26% | 10% | / | ? | -7% | /
CC(C)CCNC(=O)C(C)N(C(=O)Cn1nnc(-c2ccc(F)cc2)n1)C1CCCC1 (stereo not given) | 16% | -10% | 0% | 19% | 1.9% | 0% | -7% | 2%
CC1(NC(=O)C2CCCCC2)CCS(=O)(=O)C1 (stereo not given) | / | 2%[46.1 µM] | 5% | 9% | / | / | 4% | /
CCN(CC(=O)NCc1ccc(Cl)cc1)C(=O)c1cnc(Cl)c(Cl)c1 | / | 5%[46.1 µM] | 1% | 3% | / | -4% | 0% | -8%
COc1ccc(CN2C(=O)NC(=O)/C(=C/c3ccoc3)C2=O)cc1 | / | / | -5% | ? | / | / | 2% | 4%
CCN1CCN(C(=O)C23CCC(C)(C(=O)C2Br)C3(C)C)CC1 (stereo not given) | / | / | 6% | -13% | / | / | 0% | 0%
O=C1/C(=C/c2ccc(O)cc2)SC(=S)N1Cc1cccnc1 | 0% | ? | -4% | -1% | -0.9% | 8% | -9% | -3%
COC(=O)C1CSC(C(=O)OC)N1C(=O)Nc1ccccc1 (stereo not given) | -7% | ? | 8% | -17% | 1.6% | 19% | 7% | 2%
CC1CC(C)CN(CCOCCSc2ccccc2)C1 (stereo not given) | 5% | ? | 0% | -11% | -0.6% | 9.2µM* | -45% | -33%
CC(/C=N/NC(=O)Cc1cccs1)=C\c1ccccc1 | -9% | ? | -10% | 22% | -5.1% | 15% | -14% | -1%
CC(Sc1ccc(Cl)cc1)C(=O)NCc1cccnc1 (stereo not given) | -3% | 9% | 4% | 2% | 2.7% | 20% | 6% | -2%
O=C(/C=C/c1cn(-c2ccccc2)nc1-c1ccc2c(c1)OCCO2)NCCCN1CCOCC1 | / | 3.5µM* | 7% | 12% | / | ? | -2% | /
COc1ccc(CCn2c(C)c(C(C)=O)c(C(C)=O)c2C)cc1OC | / | -1% | 13% | -14% | / | 1% | 2% | /
CC(C)(C)c1ccc(C(=O)N2CCNC(=O)C2CC(=O)Nc2ccc(F)cc2)cc1 (stereo not given) | / | 3% | -5% | ? | / | -8% | 1% | 10%
NC(N)=NC1=NC(=O)C(Cc2ccccc2)S1 (stereo not given) | / | / | 8% | 6% | / | / | 14% | 0%
Cc1ccc(F)cc1NC(=O)CCNC(=O)c1ccc([N+](=O)[O-])cc1 | / | -6%[46.1 µM] | 5% | -3% | / | -7%[46.1 µM] | 0% | 3%
CCOc1cc(/C=N\NC(=O)c2ccc(C)nc2)cc([N+](=O)[O-])c1O | 6% | -1% | -10% | -6% | -5.0% | 9% | -3% | 6%
C=CCSc1nc(-c2ccc3c(c2)OCO3)cc(C(F)(F)F)c1C#N | ? | 22% | -25% | ? | 4.1% | 1% | -10% | -11%
Cc1cccc2sc(NC(=O)CCNS(=O)(=O)c3cccs3)nc12 | -7% | 0% | -1% | ? | -2.5% | -11% | -2% | -6%
Cc1nc(NCC2CCCO2)c2nnn(Cc3c(F)cccc3Cl)c2n1 (stereo not given) | / | 0%[46.1 µM] | 9% | 6% | / | ? | 0% | -2%
COc1cc(C(=O)NCC(c2ccc3c(c2)OCO3)N2CCOCC2)cc(OC)c1OC (stereo not given) | -1% | / | / | 1% | 0.2% | -3%[46.1 µM] | / | /
CC12C(=O)N(NC(=O)c3ccncc3)C(=O)C1C1C=CC2C1 (stereo not given) | 18% | -2% | -5% | -17% | -2.2% | 1% | -9% | 12%
CCCCNc1nc(N)nc(-c2cc(Cl)ccc2O)n1 | 14% | ? | -29% | 44%[activator] | -12% | ? | -69% | 9%
O=C(CC12CC3CC(CC(C3)C1)C2)NCc1ccncc1 | 3% | 5% | -2% | 11% | 8.2% | -30%[14.3 µM] | -14% | -4%
Fc1cccc(C2NCCc3[nH]cnc32)c1 (stereo not given) | -4% | -3% | 8% | 7% | 5.1% | -1% | 20% | 6%
CCCCOc1ccc(C(=O)N(Cc2ccc(C(C)C)cc2)C2CCS(=O)(=O)C2)cc1 (stereo not given) | ? | ? | / | -23% | -11% | ? | / | /
CNC(=O)c1ccsc1NC(=O)c1coc2ccccc2c1=O | / | / | 5% | -15% | / | / | 0% | 4%
O=S(=O)(Nc1cccc(-c2ccc(N3CCOCC3)nn2)c1)c1cc(C(F)(F)F)ccc1Cl | ? | / | / | 84%[activator] | -11% | 0%[46.1 µM] | / | /
Cc1cnc(NS(=O)(=O)c2ccccc2)c(C)n1 | / | / | -2% | -8% | / | / | 1% | 6%
O=C(CSc1nnnn1-c1ccccc1)CC(=O)Nc1ccc(Cl)cc1 | ? | -7% | 2% | ? | -18% | -27% | -5% | 2.5µM*
